CDC25B CDK2 inh = human CDC25B-CDK2/CyclinA binding inhibition; P30305+P24941; HTRF CDC25B-CDK2/CyclinA binding, anti-His/anti-Flag; stronger effect = higher value; z-score (no concentration beside the values); hit rate 0.72% among 94,000; AID 1259370;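 also: score is relative to mean and SD of negative controls; strong numbers were not always called active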
HIV TAR-Tat = HIV-1 TAR-Tat binding disruption. HIV-1 TAR RNA, Tat peptide displacement FRET; stronger effect = higher value. z-score (test concentration not listed). hit rate 0.6% among 100,000. AID 1259389;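 also: score is relative to mean and SD of negative controls; some compounds called inactive have numbers as strong as hits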
The depositor's hits bear a star; x = not tested or not shown; & = joins results of further samples.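 The calls were made as follows: active = z-score from 3 up in half or more of its runs; inactive = the rest.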 Only part of the results is shown (hit frequency here may not be typical).

Compound	CDC25B CDK2 inh	HIV TAR-Tat
CCC1c2cccn2-c2ccccc2CN1C(=O)Nc1ccccc1F (configuration not stated)	x	0.24
O=C(Nc1ccc(Cl)cc1C(=O)c1ccccc1)c1ccc(S(=O)(=O)N2CCCCC2)cc1	-3.37	x
Fc1ccc(CCNCc2ccc3c(c2)OCO3)cc1	-1.12	0.86
Nc1ccc(Br)cc1C(=O)c1ccccc1Cl	-0.72	2.23
CCC1(C)CC(CCNCc2ccccc2O)(c2ccc(F)cc2)CCO1 (configuration not stated)	-1.08	-0.28
CSc1nc2ccccc2c(=O)n1-c1cccnc1	-0.66	x
CC1(C)CC(CCNCc2ccccc2F)(c2ccccc2)CCO1 (configuration not stated)	-2.83	0.6
C/C=C(\C)C(=O)O[C@H]1C[C@@H](OC(C)=O)[C@@]2(C(=O)OC)CO[C@@H]3C2[C@]12CO[C@](O)(C(=O)OC)[C@H]2[C@](C)(C12O[C@@]1(C)[C@H]1C[C@@H]2OC2OC=C[C@@]21O)[C@@H]3O (some centres not stated)	x	1.99
Cc1nn(-c2ccc(Cl)cc2)c2c1C(c1ccc(O)cc1)SCC(=O)N2 (configuration not stated)	-2.76	1.68
COC1C(O)C(O[C@H]2CC[C@]3(C=O)C4C(CC[C@]3(O)C2)[C@@]2(O)CC[C@H](C3=CC(=O)OC3)[C@@]2(C)C[C@H]4OC(C)=O)OC(C)C1OC(C)=O (some centres not stated)	x	2.01
COc1ccc2c(c1)[nH]c1c(C)nccc12	x	0.3&1.07
COC(=O)CN1C(=O)C2(C(C(=O)OC)=C(N)OC3=C2C(=O)CCC3)c2ccccc21 (configuration not stated)	1.7	x
c1ccc(C2CC2)c(OCC2=NCCN2)c1	-2.37	x
CCOC(=O)CNC(=O)N1Cc2ccccc2-n2cccc2C1CC (configuration not stated)	x	0.89
O=C(c1cc2ccccn2n1)N1CCC2(CC1)OCCO2	-1.67	x
CCCCP(=O)(O)CCCC	0.52	x
CCc1ccc(-n2nc(C)c3c2NC(=O)CSC3c2ccc(O)cc2)cc1 (configuration not stated)	-0.14	1.51
CC(=O)O[C@@H]1C[C@@]2(C)[C@H](c3ccoc3)C[C@H]3O[C@]32[C@]2(C)C(=O)C(O)=C3C(C)(C)C(=O)C=C[C@]3(C)C12 (some centres not stated)	x	0.7
NC(CCP(=O)(O)O)C(=O)O (configuration not stated)	0.73	x
CSc1ccc(CN2CCN(Cc3ccc(F)cc3)CC2)cc1	-1.34	0.42
CCc1nc2ccccc2c(=O)n1-c1ccc2ccccc2c1	-1.31	0.03
CC(=O)O[C@H]1[C@H]2[C@@H](OC(=O)Cc3ccccc3)[C@@H](C)C[C@]2(OC(C)=O)C(=O)/C(C)=C/[C@@H]2[C@H](CC[C@@]13CO3)C2(C)C	x	2.19
CCN(CC)C(=O)c1ccc(N2C(=O)C(C)CS2(=O)=O)cc1 (configuration not stated)	-0.72	1.9
c1ccc2sc(C3CCNCC3)nc2c1	x	2.05
Cc1c(C(=O)N2CCC3(CC2)OCCO3)oc2ccc(S(=O)(=O)N3CCC(C)CC3)cc12	0.83	x

Complete entries, looked up by structure. Order of values: CDC25B CDK2 inh | HIV TAR-Tat
C/C=C(\C)C(=O)O[C@H]1C[C@@H](OC(C)=O)[C@@]2(C(=O)OC)CO[C@@H]3C2[C@]12CO[C@](O)(C(=O)OC)[C@H]2[C@](C)(C12O[C@@]1(C)[C@H]1C[C@@H]2OC2OC=C[C@@]21O)[C@@H]3O (some centres not stated) across the screens: x | 1.99
COC(=O)CN1C(=O)C2(C(C(=O)OC)=C(N)OC3=C2C(=O)CCC3)c2ccccc21 (configuration not stated) across the screens: 1.7 | x

Carrying on.
Compound	CDC25B CDK2 inh	HIV TAR-Tat
CN1CC=C(c2noc(CCC(=O)Nc3nc4ccccc4s3)n2)CC1	-2.11	1.18
Cc1cc(C)nc(-n2nc(C)c3c2NC(=O)CSC3c2ccc(Cl)cc2)n1 (configuration not stated)	-1.27	-0.08
CCOc1ccc(/C=C(\C)[N+](=O)[O-])cc1OC	-1.18	x
CCCNC(=O)N1Cc2ccccc2-n2cccc2C1c1cccs1 (configuration not stated)	x	1.17
CC(=O)N1N=C2C3CCN(CC3)C2C1c1ccc(Cl)cc1 (configuration not stated)	-0.25	0.7
CCS(=O)CCSP(=O)(OC)OC (configuration not stated)	x	-0.55
O=C(NCc1ccc(C(=O)N2CCC3(CC2)OCCO3)cc1)c1ccc2c(c1)OCO2	-1.34	x
N#CC(C#N)=Cc1ccc(O)c(O)c1	-3.64	x
CC1CC[C@]2(NC1)O[C@H]1CC3C4CC[C@H]5C[C@@H](O)CC[C@]5(C)C4CC[C@]3(C)[C@H]1[C@@H]2C (some centres not stated)	x	1.02
CN1C2CC3C[C@H]1C(O3)C2O (some centres not stated)	x	2.88
CCCCc1nc(N2CCNCC2)c(C#N)c2c1COC(C)(C)C2	-0.32	0.02
COc1cccc(C2C(C#N)=C(N)Oc3c2c(=O)oc2ccccc32)c1OC(=O)c1ccco1 (configuration not stated)	0.27	x
CC[C@@H](CO)NC(=O)[C@@H]1C=C2c3cccc4c3c(cn4C)C[C@H]2N(C)C1	1.05	x
Cc1ccc(C2SCC(=O)Nc3n[nH]c(C)c32)c(C)c1 (configuration not stated)	-1.18	-0.38
CCCC(C)C1(CC)C(=O)NC(=O)NC1=O (configuration not stated)	x	-0.01
Cc1c(N2CCNCC2)c(=O)n(C)c(=O)n1C	-2.24	2.09
Cc1[nH]nc2c1C(c1ccccc1)SCC(=O)N2 (configuration not stated)	-1.18	1.32
COCC1OC(=O)c2coc3c2C1(C)C1=C(C3=O)C2CCC(=O)C2(C)CC1OC(C)=O (configuration not stated)	x	-1.49
Cc1ccc(-n2nc(C)c3c2NC(=O)CSC3c2cccc(Br)c2)cc1 (configuration not stated)	-1.53	3.06
CSc1ccc(CNCCc2c[nH]c3ccccc23)cc1	-0.47	x
Cc1[nH]c2ccccc2c1/C=C/c1nc2ccccc2c(=O)n1-c1ccccn1	1.8	-5.16
CCCCOc1ccc(C2SCC(=O)Nc3c2c(=O)[nH]n3C(C)CC)cc1 (configuration not stated)	0.88	x
CCCN(CCC)C1CCc2ccc(O)cc2C1 (configuration not stated)	-1.81	x
CC1(C)CN=C(NCc2ccccn2)S1	0.18	-1.61
CC(=O)N1N=C2C3CCN(CC3)C2C1c1ccc(C)cc1 (configuration not stated)	0.76	1.93

Reformatted: entries from further up.
Order of results – CDC25B CDK2 inh | HIV TAR-Tat
Cc1[nH]nc2c1C(c1ccccc1)SCC(=O)N2 (configuration not stated)
  -1.18 | 1.32
Cc1ccc(-n2nc(C)c3c2NC(=O)CSC3c2cccc(Br)c2)cc1 (configuration not stated)
  -1.53 | 3.06

Continued.
Compound	CDC25B CDK2 inh	HIV TAR-Tat
CCC(=O)N1N=C2C3CCN(CC3)C2C1c1cc(C)cc(C)c1 (configuration not stated)	-0.54	0.99
C[C@@H]1CC2(C)C(=CC1=O)CCC1C2CCC2(C)C1CC[C@]2(C)O (some centres not stated)	-0.29	x
Cc1cc(C(=O)CN2CCCC2)c(C)n1-c1ccc(F)cc1	x	-3.55
CCCC(C)n1[nH]c(=O)c2c1NC(=O)CSC2c1ccc(OC(C)C)cc1 (configuration not stated)	-0.41	1.81
c1ccc2c(CN3CCC(N4CCOCC4)CC3)c[nH]c2c1	-1.25	x
COc1cccc(C2N(c3ccccn3)C(=O)C3CCCN32)c1 (configuration not stated)	-0.94	x
Cc1nn(-c2nc3ccccc3s2)c2c1C(c1ccc3c(c1)OCO3)SCC(=O)N2 (configuration not stated)	-1.65	0.11
C/C(CN1C(=O)CCC1=O)=N\N=C(N)N	-1.06	x
CCN(CC)S(=O)(=O)N1CCC(C(=O)N2CCC3(CC2)OCCO3)CC1	-1.43	x
O=c1oc2ccccc2c2c1C(c1cccc(F)c1)c1c(c3ccccc3oc1=O)O2	-4.01	x
O=c1[nH]ncc(N2CCOCC2)c1Cl	-0.32	0.56
c1cncc(C2CCCN2)c1 (configuration not stated)	x	0.57
CS/C(=N\C(N)=N/[N+](=O)[O-])Nc1ccc(C)c(C)c1	-0.33	x
CCCC[N+]1(C)[C@@H]2CC(OC(=O)[C@H](CO)c3ccccc3)C[C@H]1[C@@H]1O[C@@H]12 (some centres not stated)	x	3.59
Nc1ccccc1C(=O)c1ccccc1Cl	-1.99	0.67
ClC1=C(Cl)C2(Cl)C3C4CC(C5OC45)C3C1(Cl)C2(Cl)Cl (configuration not stated)	x	1.04
CC(=O)O[C@@H]1CC2C(C)(C)[C@H](O)C=C[C@]2(C)C2CC[C@]3(C)C(=CC(=O)O[C@H]3c3ccoc3)[C@@]21C (some centres not stated)	x	0.26
C/C=C(/C)C(=O)O[C@H]1CC[C@@]2(C)[C@@H]3CC[C@H]4[C@]5(O)C[C@H](O)[C@@]6(O)[C@@H](CN7C[C@@H](C)CC[C@H]7[C@@]6(C)O)[C@]5(O)C[C@@]42OC13O	x	1.66
CC12CN3CC(C)(CN(C1)C3c1ccco1)C2 (configuration not stated)	-0.77	x
CCOC(=O)C1=C(C)NC(=S)NC1c1cccnc1 (configuration not stated)	1.11	x
Cc1nn(-c2ccc(F)cc2)c2c1C(c1ccc(Cl)cc1)SCC(=O)N2 (configuration not stated)	-1.71	0.98
CCCCn1c(C)c(C(=O)OCC)c2cc(OCCN(C)C)ccc21	-1.69	x
Cc1ccc(CN2CCCN(Cc3ccc(C)cc3)S2(=O)=O)cc1	x	-2.09
CCC(CC)C1C(C#N)=C(N)Oc2c1c(=O)oc1ccccc21 (configuration not stated)	0.51	x
Cc1ccccc1C1SCC(=O)Nc2c1c(C)nn2-c1nc2ccccc2s1 (configuration not stated)	-0.5	-0.2

Later entries
mol	CDC25B CDK2 inh	HIV TAR-Tat
Fc1ccccc1CCNCc1ccco1	1.57	-0.26
CN1C(=O)COc2c(C(=O)NC3CN4CCC3CC4)cc(Cl)cc21 (configuration not stated)	x	-3.44
Cc1nn(-c2nc3ccccc3s2)c2c1C(c1ccc(F)cc1)SCC(=O)N2 (configuration not stated)	-1.13	0.87
C=CCOc1ccccc1C1SCC(=O)Nc2n[nH]c(C)c21 (configuration not stated)	-1.42	-0.5
Cc1cc(C)nc(-n2nc(C)c3c2NC(=O)CSC3c2cccc(Cl)c2)n1 (configuration not stated)	6.52	1.19
Cc1nn(-c2ccccc2)c2c1C(c1ccc(OC(C)C)cc1)SCC(=O)N2 (configuration not stated)	-0.35	x
CCc1ccc(CNCCc2c[nH]c3ccccc23)cc1	-0.73	0.71
CC(C)(C)[C@]1(O)C[C@@H]2OC(=O)C[C@@]23C(=O)O[C@@H]2OC(=O)[C@H](O)[C@]213	x	2.75
COc1ccc(CCNCc2cccnc2)cc1	-1.17	1.05
O=C(Nc1cc(F)ccc1F)N1Cc2ccccc2-n2cccc2C1c1cccs1 (configuration not stated)	x	1.18
O=C1C2CCN(CC2)C1CSc1ccc(Cl)cc1 (configuration not stated)	-0.02	x
CC(C)CCNC(=O)N1Cc2ccccc2-n2cccc2C1c1cccs1 (configuration not stated)	x	1.01
CC[C@]1(O)C[C@H]2CN(CCc3c([nH]c4ccccc34)[C@H](C(=O)OC)[C@H]2c2cc3c(cc2OC)N(C=O)[C@H]2[C@@](O)(C(=O)OC)[C@H](OC(C)=O)[C@]4(CC)C=CCN5CC[C@]32[C@@H]54)C1	x	1.48
O=[P+](C1CCCCC1)C1CCCCC1	-1	x
COC(=O)C1=CO[C@@H](C)[C@@H]2CN3CCc4c([nH]c5cc(OC)ccc45)[C@@H]3C[C@H]12	-2.35	-7.7
CN1CCN(c2ncnc3ccc(Br)cc23)CC1	-0.63	x
O=[N+]([O-])Nc1ccc(C(F)(F)F)cn1	-1.04	x
CC(C)=CCOc1c2occc2cc2ccc(=O)oc12	-1.74	3.52
CCCCCCC(C)(C)c1cc(O)c2c(c1)OC(C)(C)C1CC=C(CO)C[C@H]21 (some centres not stated)	x	0.05
NCCCCCCc1c[nH]c2ccccc12	-1.34	x
C[C@]1(C(=O)O)CCC[C@]2(C)c3cc(O)ccc3CC[C@@H]12	x	-0.24
CSc1ccc(C2c3cccn3-c3ccccc3CN2C(=O)Nc2ccc3c(c2)OCCO3)cc1 (configuration not stated)	x	1.3
CN(C)C(=S)SCC#N	-0.88	x
COc1cccc(N(C)N=O)c1	2.64	x
C=C[C@H]1CN2CC[C@H]1C[C@@H]2[C@H](O)c1ccnc2ccccc12	x	1.95
CN1C(=O)C(Cc2cccc3ccccc23)C(=O)N(C)C1=O	-0.03	-0.11
O=c1cccc2n1CC1CC2CN(CC(O)c2ccc3[nH]ccc3c2)C1 (configuration not stated)	0.15	0.37
O=c1c2ccccc2ncn1C1CCNCC1	x	1.24
Cc1cccc(C2SCC(=O)Nc3c2c(C)nn3-c2nc3ccccc3s2)c1 (configuration not stated)	-0.72	0.26
CCCCSc1nsc(NC(=O)CN2CC3CC(C2)c2cccc(=O)n2C3)n1 (configuration not stated)	x	-0.79

Exported with two lines to a compound: 5 of the compounds above.
Below each compound – CDC25B CDK2 inh | HIV TAR-Tat
- O=c1cccc2n1CC1CC2CN(CC(O)c2ccc3[nH]ccc3c2)C1 (configuration not stated)
→ 0.15 | 0.37
- CN1C(=O)C(Cc2cccc3ccccc23)C(=O)N(C)C1=O
→ -0.03 | -0.11
- O=c1c2ccccc2ncn1C1CCNCC1
→ x | 1.24
- Cc1cccc(C2SCC(=O)Nc3c2c(C)nn3-c2nc3ccccc3s2)c1 (configuration not stated)
→ -0.72 | 0.26
- CCCCSc1nsc(NC(=O)CN2CC3CC(C2)c2cccc(=O)n2C3)n1 (configuration not stated)
→ x | -0.79

Source: PubChem BioAssay
